INS promoter inh = TRM-6 insulin promoter activity inhibition; TRM-6 cells (human fetal islet line), insulin promoter-eGFP reporter, imaging; reporter expression induced with tamoxifen; 130,000 compounds, 0.9% hits; inhibition, % at 2 µM;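 active = inhibition above the mean plus 3 SD, with well images judged a real hit on visual review, cut at about 60% in these data, passing the limit was not always enough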
GALR2 agonist = agonists of human galanin receptor 2 (GALR2). O43603. GALR2-expressing cells, agonist activation read-out. activation, %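 (tested at 5 µM)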. 140,000 compounds, 0.48% hits;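 active = above mean plus 3 SD of all compounds, about 5% in these data, not always enough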;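 also: 0% = vehicle buffer wells and 100% = reference agonist at full effect; tested in CHO reporter cells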
PKD1 kinase inh = PKD1 (human) kinase inhibition. inhibition, %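 (about 10 µM by stock and volumes)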. PKD1 kinase fluorescence polarization assay. Q15139. 200,000 compounds, 0.056% hits;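 active = inhibition of 50% or more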;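 also: controls were vehicle for no effect and a reference inhibitor for full effect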
Target sequence (Q15139 whole entry, looked up): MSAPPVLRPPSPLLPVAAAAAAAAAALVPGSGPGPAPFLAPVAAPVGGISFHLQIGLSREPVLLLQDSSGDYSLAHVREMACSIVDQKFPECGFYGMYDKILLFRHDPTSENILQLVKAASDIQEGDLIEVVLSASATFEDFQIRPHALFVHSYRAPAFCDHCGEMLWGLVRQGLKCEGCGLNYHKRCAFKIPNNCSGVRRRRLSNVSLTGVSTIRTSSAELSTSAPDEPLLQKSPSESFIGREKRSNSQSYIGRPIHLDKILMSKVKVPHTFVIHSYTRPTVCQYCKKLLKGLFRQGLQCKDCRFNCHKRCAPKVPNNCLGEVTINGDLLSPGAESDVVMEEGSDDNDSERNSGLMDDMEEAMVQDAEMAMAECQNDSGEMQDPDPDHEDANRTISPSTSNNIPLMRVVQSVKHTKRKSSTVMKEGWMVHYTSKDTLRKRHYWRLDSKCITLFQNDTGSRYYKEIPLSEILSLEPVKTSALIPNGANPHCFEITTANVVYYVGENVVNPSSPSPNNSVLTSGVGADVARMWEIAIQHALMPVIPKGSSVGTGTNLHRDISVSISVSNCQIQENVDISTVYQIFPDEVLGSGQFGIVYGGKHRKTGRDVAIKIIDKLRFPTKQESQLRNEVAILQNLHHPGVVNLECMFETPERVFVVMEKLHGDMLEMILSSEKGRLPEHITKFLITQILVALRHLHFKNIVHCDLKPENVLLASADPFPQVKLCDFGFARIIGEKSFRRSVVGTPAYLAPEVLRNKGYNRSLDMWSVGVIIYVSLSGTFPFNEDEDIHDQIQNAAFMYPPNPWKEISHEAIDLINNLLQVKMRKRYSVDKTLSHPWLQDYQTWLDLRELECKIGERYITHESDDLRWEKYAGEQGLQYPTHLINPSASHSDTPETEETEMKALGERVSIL
RGS16-Gao = modulates binding between human RGS16 and Galphao. binding response (% of control), % at 10 µM. 220,000 compounds, 0.38% hits. O15492+P09471. bead-based flow cytometry RGS16-Galphao binding, fluorescence; actives lie on both sides. AID 1441;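 active = below 25% or above 175%, edge rows of some plates excepted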;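 also: Galphao activated by GDP with aluminum fluoride before binding; 100% = wells without compound and 0% = beads without RGS; some results beyond the cut were filed as inactive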
HSV replic up = HSV replication enhancement; maximum fold increase; 220,000 compounds, 0.005% hits; AID 1956; HSV replication augmentation in cells, fold increase;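 active = peak rise of 1.5-fold or more in the series; tested in PC3 cells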;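 also: first round at 10 µM; read as green reporter fluorescence; hits show the peak of a series up to 25 µM; 1 = signal of infected wells without compound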
INS promoter inh cell count = recorded beside INS promoter inh, whose call it bears; normalized cell count, %; measured here: cell count, toxicity; reference of the scale not given here;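 cells exposed to compound for 48 h; stained nuclei by imaging scaled within each plate; lower means fewer cells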
HSV replic up primary fold = second read-out of HSV replic up, no call of its own (marks repeat the call); fold increase; compound at 10 µM; measured here: primary screen fold increase 10 uM; tested in PC3 cells;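 GFP signal in the first replicate; 1 = infected wells without compound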
Numbers without * were called inactive; i = inactive; · = not tested or not shown. Outcome played no part in choosing rows. Share with any hit: about 1.3%.

SMILES	INS promoter inh	INS promoter inh cell count	GALR2 agonist	PKD1 kinase inh	RGS16-Gao	HSV replic up	HSV replic up primary fold
C/C(=N\Nc1ccc(C(=O)c2c(C)cc3ccccn23)cc1[N+](=O)[O-])c1ccc(O)cc1	·	·	·	·	99	i	0.78
Cc1ccnc(SCc2cc(=O)c(OC(=O)c3ccc(Br)o3)co2)n1	·	·	-0.6	-1	102	i	0.95
CC1=NN(c2nc3ccccc3[nH]2)C(=O)C1Cc1ccccc1 (configuration not stated)	·	·	·	·	107	i	0.67
COc1cccc(N2CCN(CC(=O)Nc3nc4c(s3)CC(C)CC4)CC2)c1 (configuration not stated)	-64	85	0.7	-2	105	i	0.99
CC(=O)Nc1nc(-c2ccccc2)c(-c2ccccc2)o1	0	126	-0.8	-4	107	i	0.97
CN(C)CCNC(=O)COc1ccc(Cl)cc1Cl	0	104	-1.0	-5	102	i	0.97
COc1ccc(NC2=C3CCCC=C3N(c3ccc(OC)cc3)C2=O)cc1	-21	67	·	7	101	i	0.98
COC(=O)CN(c1ccccc1)S(=O)(=O)c1cc(Br)ccc1OC	·	·	·	0	104	i	1.1
CCOC(=O)c1ccc2c(c1)n(CC)c(C)[n+]2CC	·	·	·	-3	69	i	0.85
CSC(=CC(=O)c1ccc(F)cc1)SC	·	·	·	·	99	i	1
Cc1ccc(C(=O)N2N=C(c3ccccc3)CC2(O)C(F)(F)F)o1 (configuration not stated)	-14	107	·	6	101	i	0.93
COc1ccc(S(=O)(=O)Nc2ccccc2C(=O)N2CCCC2)cc1OC	·	·	·	·	101	i	1.1
CCc1ccc(S(=O)(=O)NCCc2cn3ccsc3n2)s1	·	·	-4.7	7	67	i	0.89
O=C(Cn1nc(C(F)(F)F)c2c1CCC2)NCc1ccc(F)cc1	·	·	-1.5	-4	91	i	0.92
COc1cccc(/C=C2\SC(=S)N(CC3CCCO3)C2=O)c1 (configuration not stated)	15	89	-1.2	-4	90	i	0.97
Cc1ccc(Nc2nc(N)nc(CN3CCC(C)CC3)n2)c(C)c1	i	33	-1.7	-3	42	i	0.72
O=C(C1CCN(S(=O)(=O)N2CCC3(CC2)OCCO3)CC1)N1CCCCC1	33	110	-1.3	-2	109	i	0.96
O=c1c2ccccc2nc(SCc2nc(-c3ccccc3)no2)n1-c1ccc(F)cc1	·	·	-0.5	4	111	i	0.91
CCn1cc(C2Nc3ccccc3C(=O)N2O)c(C)n1 (configuration not stated)	8	85	-1.2	-5	109	i	0.9
CCCCNC(=S)N/N=C/c1ccc(C)s1	-22	116	-1.7	6	112	·	·
COc1ccccc1-c1nc(SCC(=O)N(C)c2ccccc2)c2c(=O)n(C)c(=O)n(C)c2n1	9	158	·	0	93	i	0.85
CCOc1nc(C)ccc1-c1noc(-c2ccccn2)n1	·	·	-0.7	-13	i	i	0.9
COCCCn1c(SCC(=O)NCc2ccco2)nc2sc3c(c2c1=O)CCC3	-86	92	-0.7	-14	89	i	0.85
Fc1ccc(NC(=S)Nc2ccccc2N2CCOCC2)cc1Cl	·	·	·	-2	98	i	0.97
CCOC(=O)c1sc2ncn(C(CC)C(=O)OCC)c(=O)c2c1C (configuration not stated)	·	·	-2.6	-4	103	i	0.92
Clc1cccc(OCCCN2CCCC2)c1Cl	-67	137	-0.7	-1	112	i	0.92
COc1ccc(Cn2c(=O)c3cccnc3n(Cc3ccc([N+](=O)[O-])cc3)c2=O)cc1	·	·	·	-6	104	i	0.85
Cc1onc(-c2ccccc2)c1C(=O)NNC(=S)NC(=O)c1ccc(F)cc1	·	·	-0.7	-2	54	i	0.94
CC12CCC(C(=O)NCc3ccccc3Cl)(CC1=O)C2(C)C (configuration not stated)	-95	75	·	-4	106	i	1
COc1ccc(-c2noc(CCC(=O)NCCN(C)Cc3ccccc3)n2)cc1	-28	115	-3.0	-1	99	i	0.95

Rewritten in markdown: part of the list above.
| mol | INS promoter inh | INS promoter inh cell count | GALR2 agonist | PKD1 kinase inh | RGS16-Gao | HSV replic up | HSV replic up primary fold |
| --- | --- | --- | --- | --- | --- | --- | --- |
| C/C(=N\Nc1ccc(C(=O)c2c(C)cc3ccccn23)cc1[N+](=O)[O-])c1ccc(O)cc1 | · | · | · | · | 99 | i | 0.78 |
| Cc1ccnc(SCc2cc(=O)c(OC(=O)c3ccc(Br)o3)co2)n1 | · | · | -0.6 | -1 | 102 | i | 0.95 |
| CC1=NN(c2nc3ccccc3[nH]2)C(=O)C1Cc1ccccc1 (configuration not stated) | · | · | · | · | 107 | i | 0.67 |
| COc1cccc(N2CCN(CC(=O)Nc3nc4c(s3)CC(C)CC4)CC2)c1 (configuration not stated) | -64 | 85 | 0.7 | -2 | 105 | i | 0.99 |
| CC(=O)Nc1nc(-c2ccccc2)c(-c2ccccc2)o1 | 0 | 126 | -0.8 | -4 | 107 | i | 0.97 |
| CN(C)CCNC(=O)COc1ccc(Cl)cc1Cl | 0 | 104 | -1.0 | -5 | 102 | i | 0.97 |
| COc1ccc(NC2=C3CCCC=C3N(c3ccc(OC)cc3)C2=O)cc1 | -21 | 67 | · | 7 | 101 | i | 0.98 |
| COC(=O)CN(c1ccccc1)S(=O)(=O)c1cc(Br)ccc1OC | · | · | · | 0 | 104 | i | 1.1 |
| CCOC(=O)c1ccc2c(c1)n(CC)c(C)[n+]2CC | · | · | · | -3 | 69 | i | 0.85 |
| CSC(=CC(=O)c1ccc(F)cc1)SC | · | · | · | · | 99 | i | 1 |
| Cc1ccc(C(=O)N2N=C(c3ccccc3)CC2(O)C(F)(F)F)o1 (configuration not stated) | -14 | 107 | · | 6 | 101 | i | 0.93 |
| COc1ccc(S(=O)(=O)Nc2ccccc2C(=O)N2CCCC2)cc1OC | · | · | · | · | 101 | i | 1.1 |
| CCc1ccc(S(=O)(=O)NCCc2cn3ccsc3n2)s1 | · | · | -4.7 | 7 | 67 | i | 0.89 |
| O=C(Cn1nc(C(F)(F)F)c2c1CCC2)NCc1ccc(F)cc1 | · | · | -1.5 | -4 | 91 | i | 0.92 |
| COc1cccc(/C=C2\SC(=S)N(CC3CCCO3)C2=O)c1 (configuration not stated) | 15 | 89 | -1.2 | -4 | 90 | i | 0.97 |

The list continues:
SMILES	INS promoter inh	INS promoter inh cell count	GALR2 agonist	PKD1 kinase inh	RGS16-Gao	HSV replic up	HSV replic up primary fold
COc1cccc(C(=O)CN2CCN(S(=O)(=O)c3ccc(Br)cc3)CC2)c1	14	121	-1.4	-6	101	i	0.97
O=C(NC1CCCC1)C1CCN(S(=O)(=O)c2cccc3cccnc23)CC1	·	·	-2.1	-13	104	i	0.93
COc1cc2[nH]c(=S)n(C3CC3)c(=O)c2cc1OC	·	·	·	-7	102	i	0.9
CC1=NN(c2nc(C)cc(C)n2)C(=O)C1CCC(C)C (configuration not stated)	44	57	-2.1	0	89	i	0.68
CCOc1ccc(C2C(C(C)=O)=C(O)C(=O)N2CCc2c[nH]c3ccccc23)cc1 (configuration not stated)	·	·	·	3	101	i	1
COc1ccc(N2CCN(C(=O)c3ccccc3)CC2)c([N+](=O)[O-])c1	·	·	·	3	101	i	0.92
CCOC(=O)CSc1nc(=O)n2cc(C)ccc2n1	62	116	·	7	98	i	0.97
CN(CCOc1ccccc1)CC(=O)Nc1cccc(Br)c1	·	·	·	-7	108	i	0.66
O=C(NCc1ccc2c(c1)OCO2)c1cccnc1	-243	35	-0.8	-1	106	i	0.97
N/C(Cc1nc(-c2ccc(Cl)cc2)cs1)=N/O	·	·	·	·	100	i	0.94
CCOC(=O)N/N=C(\C)c1ccc(-n2cnnn2)cc1	-20	44	·	1	106	i	1
COC(=O)CNC(=O)C(C)NC(=O)OCc1ccccc1 (configuration not stated)	·	·	-1.4	6	86	i	1.1
Cc1cs/c(=N\N=C2CCCCC2)n1Cc1ccco1	25	143	·	-7	96	i	0.99
CCN(CC)CCC(c1ccc2c(c1)OCO2)c1c(OC)cc(OC)c2ccc(=O)oc12 (configuration not stated)	·	·	·	·	104	i	1
CCOC(=O)N1CCN(c2nc3ccccc3nc2C(C#N)S(=O)(=O)c2ccc(C)cc2)CC1 (configuration not stated)	36	125	-3.4	2	102	·	·
COc1ccc(/C=N/NC(=O)c2csc(-n3nc(C)cc3C(F)(F)F)n2)cc1	-20	68	-0.7	-10	97	i	0.61
COc1ccccc1NC(=O)N(Cc1cccs1)Cc1cc2cc3c(cc2[nH]c1=O)OCO3	-67	73	-0.4	4	102	i	0.72
Cc1ccc(NC(=O)c2csnn2)c(C)c1	48	109	-1.1	-1	104	i	0.85
CCCCNC(=O)NNC(=O)c1ccco1	-44	85	-1.1	1	124	i	1.1
COc1ccccc1C1C(C#N)=C(N)Oc2cc(C)n(CCCn3ccnc3)c(=O)c21 (configuration not stated)	-7	133	-0.6	10	99	i	0.79
Cc1cc(C(=O)OCC(=O)NC(C)C)c(C)o1	30	137	-2.8	-1	100	·	·
CCOC(=O)Cc1[nH]nc2c1C(c1ccoc1)C(C#N)=C(N)O2 (configuration not stated)	34	119	-2.1	3	96	i	0.92
O=C(c1ccc(F)cc1)N(Cc1ccccc1)C1CCS(=O)(=O)C1 (configuration not stated)	·	·	-0.5	-6	106	i	0.86
CNC(=O)n1cc(C)c(-c2cccs2)n1	·	·	·	·	98	i	1.2
COc1ccc(NC(=O)c2cccs2)cc1NC(=O)c1ccco1	23	104	-2.9	-3	77	i	1.1
CSc1ccccc1NC(=S)N/N=C/c1cccn1Cc1ccc(F)cc1	·	·	·	11	101	i	0.69
CCCOC(=O)c1[nH]c2c(c1C)C(=O)CC(c1ccc(OC)c(OC)c1)C2 (configuration not stated)	7	114	5.2*	-8	101	i	0.91
Cn1c(=O)c2cc(S(=O)(=O)Nc3cc(C(=O)O)cc(C(=O)O)c3)ccc2n(C)c1=O	·	·	·	4	103	i	1.1
O=C(COC(=O)c1cc(=O)[nH]c2ccccc12)Nc1nc(-c2ccccc2)cs1	-12	115	·	4	99	i	0.93
O=C(COC(=O)/C=C/c1ccc(S(=O)(=O)N2CCOCC2)cc1)NCc1ccc2c(c1)OCO2	·	·	·	1	100	i	0.93
COC(=O)CNC(=O)C1(C)C=CCN1C(=O)c1ccccc1 (configuration not stated)	-5	99	-2.3	-8	99	i	0.81
Cc1ccc(-n2c3nc(=O)n(C)c(=O)c-3cc3ccccc32)cc1	·	·	·	·	101	i	0.9
CCCOc1ccc(C(C)=O)cc1CC(C(=O)OCC)C(=O)OCC	-3	133	0.2	2	103	i	0.87
CCOC(=O)N1CCN(C(=O)CNC(=O)c2nn(-c3ccc(OC)cc3)c(=O)c3ccccc23)CC1	0	90	0.3	2	102	i	0.79
CCOC(=O)C1CCN(S(=O)(=O)c2cc(Cl)c(C)cc2OC)CC1	69	124	-2.1	2	98	i	0.86
Cc1cc(C)cc(Oc2ccc(N)cc2)c1	8	82	-0.5	0	98	i	1
CC(=O)Oc1cccc(N2C(=O)c3ccc(C(=O)O)cc3C2=O)c1	·	·	0.6	2	110	i	0.95
Cc1ccc(C)c(SCC(=O)c2ccc[nH]2)c1	·	·	·	-1	98	i	0.81
CC(C)Cc1nnc(NC(=O)Cc2cccs2)s1	·	·	·	0	149	i	1
Cc1ccc(C(O)P(=O)(OC(C)C)c2ccc(N(C)C)cc2)cc1 (configuration not stated)	·	·	·	·	101	i	1
Cn1nc(C(F)(F)F)cc1C(=O)O	·	·	·	·	96	i	0.96
CCCCn1nc2cc(C(=O)NCc3cc(C(F)(F)F)cc(C(F)(F)F)c3)ccc2c1OCC	9	119	-0.3	-5	102	i	0.96
CN(C)c1ccc(N/C=C/C(=O)c2ccccc2)cc1	-13	136	-2.9	-15	94	i	1
COC(=O)CSc1nnc(C)n1-c1ccc(C)cc1	31	35	0.1	-4	92	i	1
CC(C)NC(=S)NNc1nc2ccccc2s1	·	·	·	-4	84	i	0.96
O=C1CN(c2nc(-c3cccnc3)nc3scc(-c4ccccc4)c23)CCN1	·	·	·	-1	99	i	0.9
O=C(O)Cn1c(SCc2ccccc2)nc2ccccc21	9	114	-1.1	-6	99	i	0.96
O=C(NCc1cccnc1)c1cc(-c2cccs2)on1	20	110	-3.6	11	102	·	·
Cc1c(NC(=O)CN2C(=O)c3cccc4cccc2c34)c(=O)n(-c2ccccc2)n1C	10	79	-1.7	5	104	i	1
CC1(C)CC(=O)C(C(=O)c2ccccc2)C(=O)C1	·	·	·	-4	111	i	0.94

Later entries.
SMILES	INS promoter inh	INS promoter inh cell count	GALR2 agonist	PKD1 kinase inh	RGS16-Gao	HSV replic up	HSV replic up primary fold
O=C(CCl)Nc1cccc(CP(=O)(c2ccccc2)c2ccccc2)c1	·	·	·	·	101	i	0.82
Cc1cc(/C=C2\SC(=S)NC2=O)c(C)n1-c1cccc(O)c1	·	·	·	·	99	i	1.3
COc1cc(CNCc2ccc(SC)cc2)cc(OC)c1	-12	39	-1.6	4	120	i	0.96
Cc1ccc(-c2cc(C(=O)OCC(=O)Nc3cc(C)on3)c3ccccc3n2)c(C)c1	-31	94	-1.8	4	100	i	0.55
